HCMV UL50-53 inh = inhibitors of HCMV UL50-UL53 nuclear egress complex interaction; HTRF UL50-UL53 interaction, normalized percent inhibition; inhibition, % (test concentration not listed); hit rate 0.15% among 190,000; AID 1918969;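 active = both replicates at 50% or more, plus weaker picks with an unusually low signal ratio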;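 also: stock transfer was 100 nL into about 20 µL; 0% = negative control wells and 100% = wells with untagged competitor protein; inactives centre near -12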
Sa growth inh = S. aureus growth inhibition. S. aureus RN4220 growth, OD600, 20 h, 42 °C; hits give low values. relative growth, % (concentration not given with the values). hit rate 0.53% among 170,000. AID 720641;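 active = growth at 42 °C up to 50% and 20 or more points under that at 30 °C, or under 10% at both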;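 also: 300 nL library stock went into each well; scaled to the means of positive and negative controls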
GIV Gai3 FP = blocks GIV peptide binding to rat Galpha-i3. AID 1224905. percent of control (FP), % (concentration not given with the values). hit rate 0.42% among 210,000. Galpha-i3/FITC-GIV peptide fluorescence polarization, 90 min; hits give low values; scaled: aluminum fluoride 0%, vehicle 100%. P08753;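 active = replicate mean at 85% of control or lower, very high polarization wells dropped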;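 also: wells of about 15 µL received 100 nL stock; the first replicate is given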
Target sequence (P08753 whole entry, looked up): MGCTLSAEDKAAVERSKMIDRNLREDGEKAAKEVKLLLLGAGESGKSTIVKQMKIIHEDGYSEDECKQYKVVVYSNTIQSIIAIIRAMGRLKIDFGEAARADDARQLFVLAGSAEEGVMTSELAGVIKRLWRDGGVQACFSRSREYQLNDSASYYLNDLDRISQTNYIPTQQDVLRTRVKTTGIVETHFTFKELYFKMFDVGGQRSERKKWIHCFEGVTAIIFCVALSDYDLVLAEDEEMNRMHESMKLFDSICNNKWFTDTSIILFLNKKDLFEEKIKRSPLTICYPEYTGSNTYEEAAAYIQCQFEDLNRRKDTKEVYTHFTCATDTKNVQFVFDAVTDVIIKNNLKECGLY
Sa growth inh second temp = recorded beside Sa growth inh, whose call it bears; relative growth, %; measured here: growth at 30 °C;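 optical density after 20 h as mean of two plates; 100% = untreated growth and lower means inhibition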
The depositor's hits bear a star; nt = not tested or not shown; & = joins results of further samples.

cpd	Structure	Sa growth inh second temp	GIV Gai3 FP	Sa growth inh	HCMV UL50-53 inh
1	CNC(=O)Cc1cc(=O)[nH]c(=O)[nH]1	80	95	90	-40
2	O=C(CN(Cc1ccco1)S(=O)(=O)/C=C/c1ccccc1)Nc1ccc(N2CCOCC2)cc1	86	nt	71	-40
3	COc1ccc(OC)c(/C=C/c2nc3ccccc3c(=O)n2-c2ccc(F)c(Cl)c2)c1	83	107	116	nt
4	COc1ccc(-n2c(=O)c3c4c(sc3n(Cc3c(F)cccc3Cl)c2=O)CN(C(C)=O)CC4)cc1OC	77	104	108	nt
5	Brc1ccc2c(c1)C1CC(c3ccccc3)=NN1C(c1ccc(OCc3ccccc3)cc1)O2 (stereo not drawn)	nt	105	nt	-4
6	COc1ccc2c(c1)Cc1sc(NC(=O)c3cccc(C)c3)nc1-2	75	96	89	10
7	CC(C)n1cnc2nc(CSc3ccc(NC(=O)COc4ccccc4Cl)cc3)cc(=O)n21	nt	99	nt	-36
8	CCc1ccccc1-n1nnc(C(=O)NCc2ccc3c(c2)OCO3)c1N	95	103	103	nt
9	CCOc1ccc(/C=N/OCC(=O)Nc2cc(C)on2)cc1	91	nt	85	14
10	COC(=O)c1ccc(NC(=O)C2CCCN2S(=O)(=O)c2ccc(F)cc2)cc1 (stereo not drawn)	nt	104	nt	0
11	CSc1ncnc2c1nnn2Cc1ccccc1	92	98	119	-174
12	CCN(CC)C(=O)c1cccc(C(=O)N(CC)CC)c1	94	nt	79	-18
13	CCn1cc(/C=C(/C#N)c2ccccc2Cl)c2ccccc21	98	108	100	1
14	Cc1ccc(-c2nc3ccccn3c2Nc2ccc3c(c2)OCCO3)o1	59	103	75	-12
15	CN(Cc1ccc(OC(F)F)cc1)S(=O)(=O)c1ccccc1C#N	92	nt	111	-11
16	CC1(C)CSC(=NCc2ccccc2)N1C(=O)CN1C(=O)C2C3C=CC(C3)C2C1=O (stereo not drawn)	86	nt	80	-8
17	COC(=O)c1cccc(NS(=O)(=O)c2ccc(OC)c(Cl)c2)c1C	96	105	116	-1
18	CCOc1ccc(N(CC(=O)Nc2ccc3c(c2)OCO3)S(=O)(=O)c2ccc(SC)cc2)cc1	nt	98	nt	-22
19	COc1ccc(C2(CNC(=O)CCOc3ccccc3)CCOCC2)cc1	80	101	96	-14
20	CSc1nsc(SCc2ccc(C(=O)Nc3ccc(Cl)cc3)cc2)n1	84	nt	84	6
21	Cc1ccc(CNC(=O)C(=O)NCC(c2cccs2)S(=O)(=O)c2cccs2)cc1 (stereo not drawn)	86	97	102	nt
22	COc1ccc2c(c1)cc1n2CCN2CCN=C12	88	100	92	nt
23	COC(=O)Cn1ncc(N2C3CC(CC(C)(C)C3)C2C)c(Cl)c1=O (stereo not drawn)	89	nt	85	-22
24	CN(C)CCN(Cc1ccccc1)CC1CC2C=CC1C2 (stereo not drawn)	93	nt	121	-2
25	O=C(O)c1cccc(NS(=O)(=O)c2ccc3c(c2)OCCCO3)c1	90	nt	102	-15
26	CC1=C(C(=O)N2CCN(c3ccccc3)CC2)C2(CCCCC2)OC1=O	95	99	114	-14
27	CCCN(CCC)CCNC(=O)CN1C(=O)COc2ccc(S(=O)(=O)N3CCC(C)CC3)cc21	87	99	91	-31
28	CCc1ccccc1NC(=O)Cn1nnc(-c2nc(-c3ccncc3)no2)c1N	99	105	117	nt
29	CC(C)(C)c1ccc(-c2noc(CCC(=O)Nc3cccc(Cl)c3)n2)cc1	85	101	106	-9
30	CC(C)CCN1C(=O)c2cc3occc3n2CC1(C)C(=O)NC1CCC(C)CC1 (stereo not drawn)	nt	102	nt	-15
31	COc1ccccc1CNC(=O)c1oc2c(c1C)-c1nn(Cc3ccc(Cl)cc3)cc1CC2	91	97	106	-6
32	Cc1ccccc1-n1nc2c(c1NC(=O)c1ccc(S(=O)(=O)N3CCOCC3)cc1)CS(=O)C2 (stereo not drawn)	82	101	95	-14
33	CCOc1cc(C(=O)NCc2ccc3c(c2)CCN3C(=O)c2ccc(F)cc2)cc(OCC)c1OCC	103	105	122	nt
34	N#Cc1c(NC(=O)C(F)(F)F)sc2c1CCCC2	-0.9*	nt	-1.0*	-28
35	CCc1ccccc1NC(=O)CSc1nc2ncccc2o1	85	101	113	nt
36	CCN(CCCNC(=O)Cn1ncc2c([nH]c3ccc(C)cc32)c1=O)Cc1ccccc1	89	108	102	nt
37	O=C(c1ccc(N2CCCC2=O)cc1)N1CCN(c2ccccc2)CC1	97	105	107	1
38	CCn1c(CNC(=O)c2ccccc2F)nnc1SCC(=O)NC1CCCCC1C (stereo not drawn)	83	103	122	2
39	Cc1cccc(N2CCN(C(=O)c3ccc(Cn4c(=O)c5cccn5c5cccnc54)cc3)CC2)c1C	nt	104	nt	-71
40	CC(=O)Nc1ccc(C(=O)N/N=C/c2ccc(C)o2)cc1	95	130	97	-42
41	CN1NC(=O)CC1C(=O)Nc1sc2c(c1C#N)CCCC2 (stereo not drawn)	93	96	82	-9
42	CC(=O)NS(=O)(=O)c1ccc(N=Cc2ccco2)cc1	92	110	82	20
43	CC(OC(=O)c1cccc(C(F)(F)F)c1)C(N)=O (stereo not drawn)	94	nt	91	-8
44	CCCCOc1ccc(C(=O)N2CCN(CCc3ccncc3)CC2)cc1	93	107	89	15
45	CCOc1cccc(=O)c2c(C)n(CC(=O)c3ccccc3)c(C)c12	68	162	97	-79
46	O=c1cc(O)n(C2CCCC2)c(=S)[nH]1	95	nt	97	-3
47	CC(C)CN(CCCNC(=O)c1ccc(N2CCCC2=O)cc1)CC(C)C	nt	94	nt	-20
48	COc1ccc(-c2cc3nc(-c4ccc(C)cc4)cc(C(F)(F)F)n3n2)cc1	106	105	95	4
49	COc1cc(/C=C2\Oc3ccccc3C2O)cc(Cl)c1OC (stereo not drawn)	98	103	118	-16
50	Cn1cc(C(=O)O)c(-c2ccc3c(c2)OCCCO3)n1	96	nt	93	10

Other structures follow.
cpd	Structure	Sa growth inh second temp	GIV Gai3 FP	Sa growth inh	HCMV UL50-53 inh
51	CCOC(=O)c1c(NC(=O)CS(=O)(=O)c2ccc(Cl)cc2)sc2c1CCCC2	98	101&104	105	nt
52	COc1ccccc1C(=O)COC(=O)c1ccccc1O	95	nt	94	1
53	O=C(CNS(=O)(=O)c1cccs1)N1CCN(c2ccccc2Cl)CC1	98	101	100	-16
54	FC(F)(F)Oc1ccc(NC2=NCCC2)cc1	96	nt	99	6
55	CC(OC(=O)c1ccccc1OC(F)F)C(=O)N1CCCc2ccccc21 (stereo not drawn)	96	nt	98	0
56	CC(C)(O)C#Cc1ccc(CO)cc1	87	102	104	-3
57	N#C/C(=C\Nc1cc(C(F)(F)F)cc(C(F)(F)F)c1)S(=O)(=O)Cc1ccc(Cl)cc1	73	102	87	4
58	CCOC(=O)C1(C)C=C(Nc2ccc(C(N)=O)cc2)C(=O)N1c1ccccc1 (stereo not drawn)	84	107	102	-32
59	O=C(Cc1cccs1)NCCc1cnc[nH]1	95	106	106	-39
60	CCCNC(=O)N1Cc2c(sc3c2CCCC3)-n2cccc2C1c1ccc(OCC)cc1 (stereo not drawn)	nt	108	nt	-17

Among those listed so far, two have a COOH group.
cpd	Structure	Sa growth inh second temp	GIV Gai3 FP	Sa growth inh	HCMV UL50-53 inh
25	O=C(O)c1cccc(NS(=O)(=O)c2ccc3c(c2)OCCCO3)c1	90	nt	102	-15
50	Cn1cc(C(=O)O)c(-c2ccc3c(c2)OCCCO3)n1	96	nt	93	10

(next part)
cpd	Structure	Sa growth inh second temp	GIV Gai3 FP	Sa growth inh	HCMV UL50-53 inh
61	CCCOc1ccc(-c2cccc(NS(=O)(=O)c3ccc(CC)cc3)c2)nn1	86	107	92	nt
62	COc1cccc(C(=O)N2CC(=O)Nc3ccc(C)cc3C2c2ccc(F)cc2)c1OC (stereo not drawn)	101	102	94	7
63	Cc1ccc(Cn2c(NC(=O)c3cccs3)nc3ccccc32)cc1	82	103	89	-9
64	Cc1cc(C)nc(N(C#N)CC(=O)c2ccccc2)n1	84	113	111	-4
65	O=c1c(S(=O)(=O)c2cccc(F)c2)c[nH]c2ccc(F)cc12	nt	105	nt	2
66	CCc1ccc(NC(=O)CN(C)S(=O)(=O)c2ccc3nc(-c4ccccc4)[nH]c3c2)cc1	71	102&106	98	-12
67	COC(=O)c1c(OC)ccc(-n2cccc2)c1OC	81	104	91	-13
68	COC(=O)C1=C(c2ccccc2)c2cc(Cl)ccc2S(=O)(=O)N1CC(=O)Nc1ccc(F)cc1F	nt	100	nt	-36
69	CSc1nc(C)nc(N/C=C(\C#N)S(=O)(=O)c2ccc(C)cc2)n1	92	106	98	-23
70	COc1cccc(C(=O)c2c(N)c(-c3nc(-c4ccccc4)cs3)c3ccccn23)c1	88	111	105	-10
71	CC1CCN(C(=O)C2CCN(CC3CCCCC3)CC2)CC1	93	nt	95	1
72	CC(C)S(=O)(=O)/C(C#N)=C/c1cnc[nH]1	82	98	104	-24
73	CCc1cccc(NC(=O)c2cn3c4c(ccc(Cl)c4c2=O)OC(C)C3)c1 (stereo not drawn)	100	113	115	nt
74	CCC(CC)C(=O)N1CCC(N2CCN(Cc3ccc(F)cc3)C(=O)C2=O)CC1	nt	96	nt	-18
75	COc1cc(C2c3c(oc4cc(C)c(C)cc4c3=O)C(=O)N2CCCN2CCOCC2)ccc1O (stereo not drawn)	90	102	101	-24
76	CCC(=O)N1c2ccc(S(=O)(=O)CCC(=O)Nc3ccc(OC)cc3OC)cc2CC1C (stereo not drawn)	82	104	107	-2
77	Cc1ccc(C(C)C)c(OCC(O)CN(C)Cc2ccccc2)c1 (stereo not drawn)	73	nt	90	-28
78	CC(C)c1ccc(NC(=O)c2ccc(F)c(S(=O)(=O)N3CCCCCC3)c2)cc1	82	104	120	nt
79	CC(=O)Nc1cc(C(=O)N2CCN(C)CC2)ccc1S(=O)(=O)c1ccc(C)cc1	83	103	132	nt
80	CC(C)Cc1cc(-c2ccccc2)c(C#N)c(N)n1	87	98	98	-7
81	Cc1ccc(Cn2ccnc2SCC(=O)Nc2ccc3c(c2)OCO3)cc1	94	99	92	nt
82	c1coc(CNCc2cccc3ccccc23)c1	100	nt	104	2
83	Cc1cc(C)cc(NC(=O)N2Cc3c(sc4c3CCN(C)C4)-n3cccc3C2C)c1 (stereo not drawn)	nt	108	nt	-34
84	CC(=O)Oc1cccc(C(=O)NC2CCCCC2)c1	82	103	110	-25
85	O=C1C2C3C=CC(C3)C2C(=O)N1CCN1CCN(S(=O)(=O)c2ccc(Br)cc2)CC1 (stereo not drawn)	100	97	104	-36
86	O=C(CCC(=O)N1CC2CCCN2c2ccccc21)NCc1ccccc1 (stereo not drawn)	90	99	98	nt
87	CCOc1ccc(NC(=O)CCSc2nc(-c3ccc4c(c3)OCO4)cc(C(F)(F)F)n2)cc1	91	98	81	-37
88	COc1cc(N2CCn3c(nc4cc(Cl)ccc43)C2)ccc1N	nt	122	nt	14
89	CCOC(=O)c1ccc2nc(C34CC5CC(CC(C5)C3)C4)ccc2c1	96	101	108	nt
90	O=S(=O)(NCCc1csc2nc(-c3ccccc3)nn12)c1ccc(Oc2ccccc2)cc1	90	95	121	nt

Only Sa growth inh and GIV Gai3 FP, for two of the compounds above:
item	molecule	Sa growth inh	GIV Gai3 FP
85	O=C1C2C3C=CC(C3)C2C(=O)N1CCN1CCN(S(=O)(=O)c2ccc(Br)cc2)CC1 (stereo not drawn)	104	97
86	O=C(CCC(=O)N1CC2CCCN2c2ccccc21)NCc1ccccc1 (stereo not drawn)	98	99

Later entries
cpd	Structure	Sa growth inh second temp	GIV Gai3 FP	Sa growth inh	HCMV UL50-53 inh
91	Nc1nc(-c2ccco2)nn1C(=O)c1ccc(Cl)cc1Cl	94	102	94	-13
92	COC(=O)c1nn(-c2ccc(-c3ccccc3)cc2)cc1O	91	nt	101	-20
93	COc1ccc(C(=O)Nc2ccccc2-c2nc(-c3ccc(OC)cc3)no2)cc1	91	98	97	1
94	Cc1ccc2nc(COC(=O)CSc3ncnc4c3oc3ccccc34)cc(=O)n2c1	90	nt	99	7
95	Cc1cc(-n2c(C)cc(C(=O)COC(=O)C3CCCC3)c2C)no1	96	nt	109	5
96	Cc1ccc(NS(=O)(=O)c2cn(C)cn2)cc1C	nt	104	nt	-2
97	COc1ccc(C(=O)c2cn(CC(=O)Nc3cc(C)ccc3C)c3nc(C)ccc3c2=O)cc1	102	115	106	nt
98	Cc1cccc(C)c1NC(=O)CNCC(=O)Nc1c(C)cccc1C	91	nt	108	8
99	COc1ccc(-c2noc(-c3nnn(-c4cccc(F)c4)c3N)n2)cc1	nt	97	nt	-14
100	Cc1cc(C)nc(NC(=O)COc2ccc(Br)cc2)n1	88	101	86	-31
101	CN(C)S(=O)(=O)c1ccc2nnn(OCC(=O)NCCC3=CCCCC3)c2c1	97	nt	90	6
102	CC(=O)Nc1ccc(-n2cc(-c3ccccc3)[nH]c2=S)cc1	83	nt	82	-17
103	CCOc1ccccc1C(=O)Nc1c(C)nc(Nc2ccccc2)nc1Nc1ccccc1	nt	106	nt	0
104	Cc1cc(C)cc(OCCSc2nc(-c3cccs3)nc3cc(=O)[nH]n23)c1	85	104	104	nt
105	CCOC(=O)c1c(C)oc2c1c(C(c1ccccn1)N1CCN(C)CC1)c(O)c1ccccc12 (stereo not drawn)	99	103	103	2
106	O=C(CSc1nc2ncccc2[nH]1)N1CCCC1	84	100	87	nt
107	CCOC(=O)c1cnc2cc(-c3ccc(C)cc3)nn2c1C	85	112	124	-13

Compound activity deposited in PubChem by ICCB-Longwood Screening Facility, Harvard Medical School.
